High-throughput results as filed in PubChem.
AID923: qHTS Assay for Allosteric/Competitive Inhibitors of Caspase-1: Spectroscopic Profiling in AFC Spectral Region; 75,000 tested, 1.1% active; Potency, µM (doses to about 57.5 µM), for the others: at the top dose fluorescence increase, hits mostly activators; compound fluorescence, AFC spectral region (405/520 nm); almost no hit is shown here; AID 923, 2007; active = well fitted activation curve with a large enough effect; inconclusive = small, poorly fitted or top-dose-only effect;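 also: potency is read from the fitted curve at half-maximal effect; 0% is about no effect; scaled to a free AFC standard on each plate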
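Titrations up to 57 uM read every 20 sec for 3 min (405/520 nm) with 50 nM caspase 1 and 5 uM Ac-WEHD-AFC, pH 7.5 HEPES buffer. Fluorescence-vs-time intercept gave baseline, scaled against on-plate AFC standard.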
A647 fluor: compound autofluorescence in A647 spectral region. Compound fluorescence, A647 channel (570/671 nm), Tris buffer. max dye-equivalent concentration, M. 59,000 tested, under 10 active; active means above 1 µM dye equivalent; inconclusive means 0.1 to 1 µM; inactive means 0.1 µM or less;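 also: values scaled relative to a standard on each plate; highest value over a series up to 38 µM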
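Compounds pinned into 100 mM Tris pH 8.0, 15 min at room temperature, then read with 570 nm excitation/671 nm emission filters. Fluorescence normalized to an on-plate six-point Alexa 647 standard curve, giving dye-equivalent concentration per compound concentration.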
A488 fluor: compound autofluorescence in A488 spectral region; compound autofluorescence, A488 spectral region, dye equivalency; active compounds read high; AID 591; 59,000 tested, 0.1% active; max dye equivalency, M; active = above 10 nM dye equivalent; inconclusive = 1 to 10 nM; inactive = 1 nM or less; about half of its hits are not listed in these tables;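 also: highest value over a series up to 38 µM; compound alone in buffer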
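Read-out: relative fluorescence at 480/540 nm, expressed as Alexa 488 dye-equivalent concentration from a six-point A488 standard included per plate. Conditions: 100 mM Tris, pH 8.0; 15 min incubation, room temperature.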
Resorufin fluor: compounds fluorescent in resorufin spectral region | Compound fluorescence, resorufin region 547/598 nm, buffer; active compounds read high | AID 588 | 59,000 tested, 0.04% active | max dye-equivalent concentration, M; active = above 10 nM dye equivalent; inconclusive = 1 to 10 nM; inactive = 1 nM or less; a few of its hits are not listed in these tables; also: highest value over a series up to 38 µM
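Dye-equivalent concentration values derive from comparing each well's 547/598 nm fluorescence against resorufin standards included on every plate. Incubation was 15 min at room temperature in 100 mM Tris, pH 8.0.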
TSHR ag: activates the human thyroid stimulating hormone receptor. P16473. Potency, µM (top dose mostly 57.1 µM), without a hit: top-dose activation, most hits filed as activators. HEK293-CNG-TSHR cells (CNG channel as cAMP sensor), membrane potential dye, cAMP. 73,000 tested, 0.48% active; active = well fitted activation curve of enough size with the parental cells flat; inconclusive = any curve in the parental cells; inactive = parental cells flat and receptor cells flat or falling; also: potency is read from the fitted curve at half-maximal effect; % of control where 0% means no effect; weak receptor curves with flat parental cells got no call and are not listed
Target sequence (P16473 whole entry, looked up): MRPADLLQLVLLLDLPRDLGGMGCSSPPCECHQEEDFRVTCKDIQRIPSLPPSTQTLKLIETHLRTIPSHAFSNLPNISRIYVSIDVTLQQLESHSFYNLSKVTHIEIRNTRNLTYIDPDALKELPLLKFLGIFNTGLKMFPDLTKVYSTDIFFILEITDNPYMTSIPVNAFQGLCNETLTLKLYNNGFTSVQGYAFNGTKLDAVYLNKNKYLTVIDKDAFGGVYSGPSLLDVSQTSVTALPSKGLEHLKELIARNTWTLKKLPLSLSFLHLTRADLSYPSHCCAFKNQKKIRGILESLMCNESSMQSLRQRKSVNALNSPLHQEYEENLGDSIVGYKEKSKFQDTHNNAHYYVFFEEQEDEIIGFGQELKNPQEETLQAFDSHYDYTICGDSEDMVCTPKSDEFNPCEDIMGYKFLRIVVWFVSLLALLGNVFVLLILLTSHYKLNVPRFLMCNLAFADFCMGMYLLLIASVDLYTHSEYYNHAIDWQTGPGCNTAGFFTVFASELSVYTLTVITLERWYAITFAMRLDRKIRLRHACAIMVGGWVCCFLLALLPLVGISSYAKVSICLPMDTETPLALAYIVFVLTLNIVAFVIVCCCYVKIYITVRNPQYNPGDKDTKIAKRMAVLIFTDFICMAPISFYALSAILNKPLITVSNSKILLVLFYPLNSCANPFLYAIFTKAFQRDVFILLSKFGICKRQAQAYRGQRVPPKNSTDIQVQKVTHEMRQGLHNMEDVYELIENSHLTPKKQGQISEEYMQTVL
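HEK 293 cells stably expressing TSHR and a cAMP-gated CNG channel; parental CNG-only cells as counterscreen. Cells preloaded 60 min with membrane potential dye plus 100 uM RO 20-1724, then compound 30 min; fluorescence read at 590 nm.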
An asterisk follows results filed as active; i = inactive; ? = inconclusive; . = not tested or not shown; [ ] = remark or other dose. Only part of the results is shown; rates above refer to the full screens.

SMILES	AID923	A647 fluor	A488 fluor	Resorufin fluor	TSHR ag
CC1(C)Cc2c(C#N)c(NCCc3ccccc3)nc(-c3ccco3)c2CO1	.	3.3e-09	i	i	.
Cc1cc(C)c(C#N)c(SCc2ccc(C#N)cc2)n1	1.4%	1e-09	i	i	?
O=c1c2c(n3nnnc3n1-c1ccccc1)-c1ccccc1CC21CCCC1	0.7%	3.06e-08	i	i	20.9%
Cn1c(=O)oc2cc(C(=O)c3ccccc3)ccc21	.	1.3e-09	i	i	.
CN=C1c2cc3c(Br)c(OC)ccc3n2CCN1C	.	1.75e-08	i	i	.
Cc1ccc2c(c1)N(CC(=O)OC(CC(C)C)C(=O)NC1CCCC1)C(=O)CO2 (centres undefined)	0.5%	1.34e-08	i	i	?
Cc1cc(S(=O)(=O)N2CC(=O)N(CCc3ccccc3)C(=O)C2)ccc1F	0.7%	1e-09	i	i	6.9%
O=C(c1ccc2c(c1)OCCO2)C1CCN(S(=O)(=O)c2ccccc2F)CC1	1.7%	2.17e-08	i	i	?
CC(=O)OC[C@@H]1O[C@H](C/C=N\O[C@@H](C)c2cn([C@H]3COC[C@H]3O)nn2)C=C[C@@H]1OC(C)=O	3.1%[11.5 µM]	.	.	.	-2.1%[11.4 µM]
Cn1c(SCC(=O)Nc2ccc3c(c2)OCCO3)nnc1-c1ccccn1	-0.2%	3.6e-08	i	i	3.2%
COc1ccc(OC)c(C(=O)c2nc3c(n2O)CCCCC3)c1	3.5%	3.22e-08	i	i	13.9%
CCOc1ccc(-n2cnnn2)cc1S(=O)(=O)Nc1c(C)cccc1C	3.2%	1e-09	i	i	0.4%
Cc1c(C(=O)NCc2ccccn2)sc2nc(-c3ccccc3)cn12	0.6%	.	.	.	?
O=C(NCCCN1CCCC1)Nc1cccc2ccccc12	0.6%	2.95e-08	i	i	-1.3%
CO[C@H]1COC(=O)[C@@H](OCc2ccccc2)/C=C\[C@H](C)[C@@H](OC)COC(=O)[C@H](OCc2ccccc2)/C=C\[C@@H]1C	1.0%[11.5 µM]	.	.	.	-1.6%[11.4 µM]
Nc1ccc2c3c(cccc13)CC2	.	2.5e-09	i	i	.
CCn1c(SCc2nc3ccccc3[nH]2)nnc1-c1cnccn1	2.7%	1.98e-08	i	i	4.3%
O=S(=O)(NCC(O)COCc1ccco1)c1cccs1 (centres undefined)	0.7%	2.17e-08	i	i	8.0%
Cc1cc(=O)[nH]c(SCC(=O)N2CCN(C(c3ccccc3)c3ccccc3)CC2)n1	-1.0%	3.23e-08	i	i	.
COc1cccc(/C(O)=C2/C(=O)C(=O)N(CCN(C)C)C2c2ccc(Br)cc2)c1 (centres undefined)	.	5.8e-09	i	i	.
COc1ccc(OC)c(S(=O)(=O)Nc2ccccc2SC)c1	0.6%	1e-09	i	i	28.5%
CC(C)(C)c1ccc(Cn2nnc3c(=O)[nH]c(C4CCN(C(=O)Cc5cccs5)CC4)nc32)cc1	0.7%	3.47e-08	i	i	?
Cc1cc(C)c2c(=O)[nH]n(C(C)C)c2n1	-1.4%	1.76e-08	i	i	1.4%
CCCS(=O)(=O)N1CCN(C(=O)CCC2CCCC2)CC1	-1.4%	1.4e-09	i	i	-2.8%
CCCNC(=O)OC[C@H]1O[C@@H](CCO/N=C2/C[C@@H](O)[C@@H](O)[C@@H]3[C@@H]4C(=O)N(CC)C(=O)[C@H]4CC[C@@H]23)C=C[C@@H]1Oc1ccc(OC)cc1	0.4%[11.5 µM]	.	.	.	-6.5%[11.4 µM]
COc1ccc(OC)c(S(=O)(=O)N2CCC(C(=O)NCc3ccccc3)CC2)c1	0.2%	1e-09	i	i	3.6%
CC1CCCCC1NC(=O)CCS(=O)(=O)c1cccc2nonc12 (centres undefined)	1.0%	4.75e-08	i	i	0.4%
C1CCN(c2nc3nonc3nc2N2CCCC2)C1	0.2%	1e-09	i	i	-1.8%
CCC1(C(=O)O)NC(c2cccc(OC)c2O)C2C(=O)N(c3ccccc3)C(=O)C21 (centres undefined)	-0.9%	.	.	.	4.9%
COC(=O)Cn1c(CN2CCc3ccccc3C2)nc2c1c(=O)n(C)c(=O)n2C	2.2%	.	.	.	?
COc1ccc(-c2nnc3ccc(SCC(=O)N4CCN(c5ccccc5)CC4)nn23)cc1OC	-0.5%	1.9e-09	i	i	3.6%[11.4 µM]
OC(COc1ccc(C2C=CCC2)cc1)CN1CCCCC1 (centres undefined)	-0.8%	.	.	.	5.0%
NC(N)=N/N=C(/c1ccccc1)c1ccc(O)cc1O	7.4%[11.5 µM]	5.89e-08	i	i	4.4%[11.4 µM]
COc1ccc(C(=O)Nc2ccccc2C(=O)NCCN2CCOCC2)cc1	0.7%	2.2e-09	i	i	3.4%
Cc1cc(C)n(CCc2nc(-c3cccs3)cs2)n1	0.1%	6.5e-09	i	i	11.6%
CC(NC(=O)C1C(=O)N(CCO)C2(C)CC1c1ccccc1O2)c1ccccc1 (centres undefined)	0.9%	3.96e-08	i	i	23.3%
CC(=O)Nc1ccc(S(=O)(=O)N2CCC(NC(=O)c3ccco3)CC2)cc1	-2.2%	4.11e-08	i	i	0.0%
O=C(COc1ccc2ccc(=O)oc2c1)Nc1ccc2c(c1)OCCO2	0.3%	3.52e-08	i	i	0.4%[11.4 µM]
COc1ccc(S(=O)(=O)Nc2ccccn2)cc1OC	0.7%	2.34e-08	i	i	1.3%
CC1(C)OC(=O)C(=CNc2ccc(F)cc2)C(=O)O1	0.0%	1e-09	i	i	?
CC(O)c1cc2c(cc1NC(=O)c1cnn3c1NC(c1ccco1)CC3C(F)(F)F)OCO2 (centres undefined)	-1.5%	1.22e-08	i	i	-11.6%
O=C(Cn1ccc2ccccc2c1=O)N1CCN(c2cccc(Cl)c2)CC1	-0.2%	1e-09	i	i	2.9%
c1ccc(CSc2nnnn2-c2ccc3c(c2)OCCO3)nc1	-0.2%	1e-09	i	i	2.3%
C=CCN1C(c2ccc(OCC)cc2)=CS/C1=C(\C#N)c1nnc2n1CCCCC2	-0.1%	1.97e-08	i	i	8.1%
CCOC(=O)CNC(=O)CSc1nnc(-c2cccc(OC)c2)n1CC	-0.5%	4.3e-09	i	i	1.7%
CC(C)CCSc1nnc(Cn2c(=O)sc3ccccc32)n1C	2.2%	.	.	.	12.0%
Cn1c(C(=O)N2CCN(C3CCCCC3)CC2)cc2c(=O)n(C)c3ccccc3c21	-0.8%	.	.	.	8.7%
COc1ccccc1N1CCN(S(=O)(=O)c2ccc3c4c(cccc24)C(=O)N3)CC1	4.9%	2.82e-08	i	i	-11.7%
c1ccc2c(c1)CCC[C@H]2C1=NCCN1	-1.0%	5.7e-09	i	i	1.5%
O=S(=O)(Nc1nc2ccccc2nc1NCc1ccco1)c1ccc(Cl)cc1	2.9%	6.5e-09	i	i	-12.0%
CCOC(=O)N1CCC2(O)CCCCC2C1c1ccc(F)cc1 (centres undefined)	0.0%	1.3e-09	i	i	12.8%
Cc1cc(N2CCN(c3cccc(C(F)(F)F)c3)CC2)n2nc(C)nc2n1	0.1%	3.58e-08	i	i	14.5%
O=C1CC(c2ccccc2)CC(O)=C1C=NCCN1CCOCC1 (centres undefined)	0.1%	.	.	.	-0.8%
COc1ccc(-c2nnc(CSc3nc4ccccc4c(=O)n3CC(C)C)o2)cc1OC	-0.8%	1e-09	i	i	?
CC(C)c1ccccc1NC(=O)c1cnccn1	-0.2%	1e-09	i	i	11.9%
COc1ccccc1-c1cncnc1NCc1ccccc1	0.6%	2.5e-08	i	i	?
Cc1ccc2cccc(NC(=O)C(F)(F)F)c2n1	-0.4%	7.02e-08	i	i	14.0%
COCCOC(=O)c1c(C)nc(SCC(=O)Nc2ccc(OC)cc2)c(C#N)c1-c1ccco1	.	1e-09	i	i	.
COC(=O)c1cc(-c2ccc3ccccc3c2)[nH]c(=O)c1C#N	14.0%[11.5 µM]	2.4e-09	i	i	1.0%[11.4 µM]
Cc1ccc(S(=O)(=O)NCC(c2ccccc2)N2CCN(CCC#N)CC2)cc1 (centres undefined)	-1.3%	1e-09	i	i	5.9%

Reformatted with values under each structure: entries from further up.
Second line of a record – AID923, A647 fluor, A488 fluor, Resorufin fluor, TSHR ag
c1ccc(CSc2nnnn2-c2ccc3c(c2)OCCO3)nc1
    -0.2%, 1e-09, i, i, 2.3%
C=CCN1C(c2ccc(OCC)cc2)=CS/C1=C(\C#N)c1nnc2n1CCCCC2
    -0.1%, 1.97e-08, i, i, 8.1%

Three entries picked at random from those above:
SMILES	AID923	A647 fluor	A488 fluor	Resorufin fluor	TSHR ag
Cc1ccc2cccc(NC(=O)C(F)(F)F)c2n1	-0.4%	7.02e-08	i	i	14.0%
COC(=O)c1cc(-c2ccc3ccccc3c2)[nH]c(=O)c1C#N	14.0%[11.5 µM]	2.4e-09	i	i	1.0%[11.4 µM]
CCOC(=O)N1CCC2(O)CCCCC2C1c1ccc(F)cc1 (centres undefined)	0.0%	1.3e-09	i	i	12.8%

(continued)
SMILES	AID923	A647 fluor	A488 fluor	Resorufin fluor	TSHR ag
CCCn1c(-c2ccc(F)cc2)nc2c(NCCCN3CCCCC3C)nc(C)nc21 (centres undefined)	1.7%	.	.	.	?
CCOC(=O)N1CCN(C(=O)CS(=O)Cc2nc(-c3cccc(C)c3)oc2C)CC1 (centres undefined)	0.4%	.	.	.	-9.1%
COc1cccc(CNCCOCCO)c1OC	0.6%	4.25e-08	i	i	16.8%
O=c1[nH]c2ccccc2n1CCCOc1ccccc1	-0.8%	6.2e-09	i	i	5.2%
Cn1c(Cc2ccccc2)nnc1SCCC(=O)Nc1ccccc1	0.6%	3.78e-08	i	i	4.5%
CN(CCc1ccccn1)c1ccc2c(c1)C(=O)c1ccccc1-2	-1.1%[11.5 µM]	2.28e-08	i	i	?
c1ccc(-n2c(-c3ccncc3)nnc2N2CCOCC2)cc1	-1.0%	4e-09	i	i	1.4%
O=C(COc1ccccc1F)c1ccc(O)cc1O	-1.8%	.	.	.	-4.8%
O=C(CCN1CCN(c2ccc(F)cc2)CC1)Nc1ccccc1F	-1.3%	2.7e-08	i	i	14.9%
CC[N+](CC)(CC)CCOc1ccc(/C=C\c2ccccc2)cc1	-1.7%	.	.	.	0.1%
O=C1CC(N2CCN(c3ccc(F)cc3)CC2)C(=O)N1Cc1ccc(N2CCCC2=O)cc1 (centres undefined)	0.1%	3.3e-08	i	i	26.2%
COC(=O)[C@H]1CCCN1C(=O)Nc1cccc(Oc2c(F)c(F)c(F)c(F)c2F)c1	.	1.81e-08	i	i	.
CCC(=O)c1ccc(OCC(O)Cn2c(C)nc3ccccc32)cc1 (centres undefined)	-2.3%	1.3e-09	i	i	19.8%
Cc1ccc(S(=O)(=O)N2CCCC(C(=O)NCCc3ccc4c(c3)OCO4)C2)cc1 (centres undefined)	-0.3%	5.4e-09	i	i	17.6%
O=P(Cc1nnco1)(c1ccccc1)c1ccccc1	.	3.9e-09	i	i	.
CCOCCCNC(=O)c1c(C)c(C(=O)OCC)n(C)c1C	-1.9%	9e-09	i	i	1.6%[11.4 µM]
CCc1ccc(NS(=O)(=O)c2ccc3[nH]cc(C(=O)NCC4CCCO4)c(=O)c3c2)cc1 (centres undefined)	0.2%	2.1e-08	i	i	.
CCOC(=O)N1CCC(NC(=O)C(Cc2ccccc2)NC(=O)c2ccco2)CC1 (centres undefined)	-0.4%	1e-09	i	i	-3.2%
O=C(O)CCn1c(-c2ccccc2)cc2c1CCCC2=O	-1.4%	.	.	.	2.1%
O=S(=O)(NCC(c1cccnc1)N1CCOCC1)c1cccs1 (centres undefined)	-0.1%	1e-09	i	i	?
CCOC(=O)Cn1c2c(c(-c3ccccc3OC)cc1=O)CCCC2	1.1%	1.41e-08	i	i	?
CCOC(=O)C1CCN(C(=O)CN(c2ccc(OC)cc2)S(=O)(=O)c2c(C)noc2C)CC1	3.6%	.	.	.	13.1%
